Screening results deposited in PubChem by Broad Institute.
Tg IFNy HTS: inhibitors of Toxoplasma gondii growth with IFN-gamma. Toxoplasma gondii growth in IFN-gamma-treated host cells; hits give low values; reference of the scale not given here. activity change, negative = inhibition, %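 (about 20 µM by stock and volumes)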. 69,000 tested, 3.8% active. AID 1259416;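 active means below -70%; inconclusive means fit judged invalid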;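 further: host cells are HeLa cells infected with Toxoplasma gondii; parasite growth read as luciferase light; one replicate is shown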
Numbers without * were called inactive; i = inactive; u = inconclusive.

nr | compound | Tg IFNy HTS
1 | COc1ccc(S(=O)(=O)N(C)C[C@@H]2OCCCC[C@@H](C)Oc3ccc(NC(=O)Cc4ccccc4)cc3C(=O)N([C@@H](C)CO)C[C@H]2C)cc1 | -7
2 | O=C(O)c1c(S(=O)(=O)NCCC2=CCCCC2)sc2c1CCNC2 | -19
3 | CCCCC(=O)Nc1ccc(-c2nc(-c3ccccc3)co2)cc1 | 5
4 | CCn1c(C)ccc(C(=O)N2CC(c3ccncc3)C2)c1=O | 8
5 | Cc1cnc(N2CC[C@@H]3CN(Cc4ccncc4)CCO[C@H]3C2)nc1 | -3
6 | CCc1cnc(N2CCC3(C2)CN(c2cccnc2)C(=O)CN3C)nc1 (stereo not given) | 7
7 | COc1ccccc1NS(=O)(=O)c1cc2c3c(c1)CCN3C(=O)CC2 | -4
8 | Cc1cc(CNS(=O)(=O)N2CCCC2)c2[nH]c(C)c(C)c2c1 | 49
9 | COc1nc(-c2ccccc2)c2cc([N+](=O)[O-])ccc2n1 | 275
10 | Cc1cccc(S(=O)(=O)N2CC[C@@H]3[C@@H](CO)Nc4ccc(-c5ccccc5F)cc4[C@@H]32)c1 | -48
11 | CCOc1ccccc1NC(=O)C(=O)NCCc1sc(-c2ccc(F)cc2)nc1C | 38
12 | Cc1nonc1C1CCCN1CCC(=O)Nc1nnc(C2CC2)s1 (stereo not given) | 10
13 | COCCCNC(=O)Cn1nnc(-c2ccc(NC(=O)c3cccnc3)cc2)n1 | -6
14 | COc1ccccc1-c1nc(Cn2nnc(C(=O)Nc3ccccc3C)c2C)c(C)o1 | 136
15 | COc1ccc(-c2nc(Cn3cnc4nc5c(cc4c3=O)CC(C)CC5)c(C)o2)cc1OC (stereo not given) | -49
16 | CCSc1nc2ccc(-n3cnnc3)cc2o1 | -67
17 | Cn1ccc2c(-c3cc(N4CCCCC4)ncn3)ccnc21 | 24
18 | CN(C)S(=O)(=O)N1C[C@H]2C[C@H](C(=O)Nc3cccnc3)[C@@H](C1)O2 | 2
19 | O=C(c1ccc2c(c1)CCC(=O)N2Cc1ccccc1)N1CCN(c2ccccc2F)CC1 | -102*
20 | O=C(CN1CCOCC1)N1CC2(C1)[C@H](c1ccccc1)[C@H](CO)N2Cc1cccc(F)c1 | -22
21 | Cc1nc(-c2ccc(F)cc2)sc1CCNC(=O)c1ccccc1Br | -14
22 | Cc1cn(CCNC(=O)c2cccc(NCc3sccc3C)c2)nn1 | -2
23 | Cc1ccc(CN2CC[C@@H](N3CCOCC3)[C@H]2Cc2cccnc2)o1 | 6
24 | O=C(Cn1ncc2c(N3CCOCC3)ncnc21)N1CCOCC1 | -38
25 | COc1ccc(C2C3C(C)=NN=C3CC(C)(O)C2C(C)=O)cc1 (stereo not given) | -9
26 | CCN(CC)c1ncnc2c1cnn2CC(=O)Nc1ccccc1F | 2
27 | CCCCN(Cc1ccco1)C(=O)c1c(C)nc2ncccn12 | -38
28 | COc1ccccc1CNC(=O)CC1N=C2c3ccccc3N=C(SCc3cc(=O)n4cc(Cl)ccc4n3)N2C1=O (stereo not given) | -24
29 | Cc1ccc(CN(CCCn2ccnc2)Cc2cccs2)s1 | 17
30 | O=C(c1cccc2cccnc12)N1CCC2(CC(=O)N(c3ccccc3)C2)C1 (stereo not given) | 55

Molecules above containing two or more sulfur atoms:
nr | compound | Tg IFNy HTS
2 | O=C(O)c1c(S(=O)(=O)NCCC2=CCCCC2)sc2c1CCNC2 | -19
29 | Cc1ccc(CN(CCCn2ccnc2)Cc2cccs2)s1 | 17

Next compounds:
nr | compound | Tg IFNy HTS
31 | CCOC(=O)c1ccc(NC(=O)NS(=O)(=O)c2ccc(C)cc2)cc1 | 5
32 | Cc1nc(CN2CCC3(CC2)CC(CC(=O)N(C)C)c2ccccc23)cs1 (stereo not given) | 6
33 | CCOC(=O)c1ccc2nc(NC(=O)COC(=O)c3nn(C)cc3Cl)sc2c1 | 37
34 | CCOC(=O)N1CCC2(CC1)OC(=O)C(C)=C2C(=O)NCCN1CCOCC1 | 187
35 | O=C(Cc1ccccc1)N1CC(=O)N2[C@H](CO)[C@@H](c3ccc(-c4ccc(F)cc4)cc3)[C@@H]2C1 | -52
36 | CC(C)(C)C(=O)N1CCN(c2ccc(C(F)(F)F)cn2)CC1 | -7
37 | O=C1NCCCCC1N1CNC(=S)NC1 (stereo not given) | 61
38 | O=C1CCC2(CCC(NCc3nccs3)CC2)N1 (stereo not given) | -40
39 | O=C(NCCNc1ccccn1)c1nc2ccc(F)cc2[nH]1 | 1
40 | CN1CCN(C)C2(CCN(C(=O)C(c3ccccc3)n3cnnn3)CC2)C1 (stereo not given) | -1
41 | CCOC(=O)Cn1nc(C)c(NC(=O)c2cc(OC)cc(OC)c2)c1C | -3
42 | CC(C)CN1C(=O)CCC12CCC(NC(=O)c1cnccn1)CC2 (stereo not given) | -2
43 | O=C(O)c1ccccc1CN1CCC(C(O)c2cccs2)CC1 (stereo not given) | 22
44 | COc1ccc(N2CCN(Cc3ccc4nonc4c3)C(C)C2)cc1 (stereo not given) | 4
45 | CN(Cc1cnc(N2CCOCC2)nc1)CC1Cc2ccccc2CN1C (stereo not given) | -3
46 | COc1ncc(CN(C)C(C)c2cccnc2)cn1 (stereo not given) | -9
47 | Cc1noc(C)c1CC(=O)N1CC(=O)N(C(C)C)CC(OCc2ccc(OC(F)(F)F)cc2)C1 (stereo not given) | 3
48 | O=C(OCc1ccco1)c1ccc(-c2ccc(Cl)cc2)s1 | 194
49 | Cc1noc(C)c1NC(=O)N(C)C[C@@H]1Oc2ccc(NC(=O)CCCN(C)C)cc2C(=O)N([C@@H](C)CO)C[C@@H]1C | 7
50 | Cc1cc(=O)n(CC(=O)NC(C)c2ccccn2)c2ccccc12 (stereo not given) | -6
51 | CCc1cc(CNC(=O)CC23CC4CC(C2)CC(n2cncn2)(C4)C3)on1 | -2
52 | CN(C)c1ncc2c(n1)C1(CCN(C(=O)C3CC3)C1)COC2 (stereo not given) | 4
53 | COCC(=O)N1[C@H](CO)[C@@H](c2ccc(C#CCC3CCCC3)cc2)[C@@H]1C#N | -3
54 | CCc1nccn1CCC(=O)Nc1ccc(NC(=O)c2coc(C)c2)cc1 | 2
55 | COc1ccc2c(c1)CC(NC1CCN(S(C)(=O)=O)CC1)CC2 (stereo not given) | 4
56 | Cc1ccc(-c2nc(Cn3nnc(C(=O)NC4CCCC4)c3C)c(C)o2)cc1 | -101*
57 | Cc1cccn2c(CC(=O)N3CCCC3Cn3cccn3)cnc12 (stereo not given) | -5
58 | CN1C(=O)c2cc(NC(=O)c3ccc(F)c(F)c3)ccc2OC[C@@H]2O[C@H](CC(=O)N3CCCCC3)CC[C@H]21 | -47
59 | CCc1cnc(N2[C@H](C#N)[C@H](c3ccc(C4=CCCCC4)cc3)[C@H]2CO)s1 | -49
60 | Cc1ccc(-c2ccccc2[C@H]2[C@@H](C#N)N(c3ncc(-c4ccccc4)s3)[C@H]2CO)cc1 | u

Fetched one by one from above, 2 records:
nr | compound | Tg IFNy HTS
22 | Cc1cn(CCNC(=O)c2cccc(NCc3sccc3C)c2)nn1 | -2
25 | COc1ccc(C2C3C(C)=NN=C3CC(C)(O)C2C(C)=O)cc1 (stereo not given) | -9

Structures listed so far containing a COOH group (two):
nr | compound | Tg IFNy HTS
2 | O=C(O)c1c(S(=O)(=O)NCCC2=CCCCC2)sc2c1CCNC2 | -19
43 | O=C(O)c1ccccc1CN1CCC(C(O)c2cccs2)CC1 (stereo not given) | 22

The list continues.
nr | compound | Tg IFNy HTS
61 | CN(C)C(=O)c1ccc2c(c1)N(C)C(CC(=O)Nc1cccc3[nH]ncc13)CO2 (stereo not given) | 3
62 | CCc1cccc(NC(=O)C2=C(C)C(=O)OC23CCN(C(C)C)CC3)c1 | 60
63 | COC1CCN(C(=O)c2ccc(OC3CCN(Cc4ccccn4)CC3)cc2)CC1 | 24
64 | CCc1nc(N2[C@@H](C#N)[C@@H](c3ccccc3-c3ccccc3C)[C@@H]2CO)sc1C | -19
65 | CC(C)C(=O)N1CC(c2ncn3ccccc23)C1 | 39
66 | CSc1ccc(CC2(CCC(=O)N[C@@H]3CCCC[C@H]3c3ccccc3)CCC(=O)N2)cc1 (stereo not given in full) | 10
67 | COCCN1Cc2ncn(C)c2C(COCc2csc(C)n2)C1 (stereo not given) | -19
68 | C/C=C/c1ccc2c(c1)[C@H]1[C@H](CCN1C(=O)C1CCCC1)[C@@H](CO)N2 | -43
69 | O=C(C[C@@H]1CC[C@@H]2[C@H](COC[C@@H](O)CN2Cc2nccs2)O1)NCc1ccccc1Cl | -4
70 | CCOc1ccccc1-c1nc(Cn2c(=O)c3c(C)cc(C)nc3n(-c3ccccc3)c2=O)c(C)o1 | 3
71 | CN(Cc1ccccc1)c1ccc2ccc(C(=O)N3CCCC3)cn12 | -9
72 | CN(C)C(=O)c1cnc(N(C)C)nc1-c1ccc(CNC(=O)c2ccn(C)c(=O)c2)cc1 | 46
73 | Cc1cc(C(=O)N2CCC3(CC2)CNC(=O)O3)c2ccc(F)cc2n1 | 1
74 | COc1ccc(-c2ccccc2[C@@H]2[C@@H](C#N)N(C(=O)NC3CCCCC3)[C@H]2CO)cc1 | 6
75 | CCCCN(C)C(=O)c1cc2cccnc2n(Cc2ccc(F)cc2)c1=O | 38
76 | FC(F)(F)c1ccc(NCn2nnc3ccccc32)cc1 | -43
77 | CN(C)c1ccc(NC(=O)Nc2csc3ccccc23)cc1 | 63
78 | Clc1ccc(CSc2nc(NCCc3ccccc3)c3ccccc3n2)cc1 | 14
79 | Cc1noc(CCC(=O)N2CCCC(N(C)S(=O)(=O)c3cccc(F)c3)CC2)n1 (stereo not given) | -22
80 | Fc1ccc(C(CCCN2CCN3CCCCC3C2)c2ccc(F)cc2)cc1 (stereo not given) | -62
81 | COc1ccc(S(=O)(=O)NCCc2csc(-c3ccc(F)cc3)n2)cc1 | -28
82 | O=C(Nc1ccc(F)cc1)N1CCC2(CC1)Nc1cc(F)ccc1-n1cccc12 | i
83 | c1ccc(-c2[nH]nc(-c3cccnc3)c2-c2nc3ccccc3[nH]2)cc1 | 14
84 | CCn1c(C2CCN(C(=O)C3(C)CCCO3)CC2)n[nH]c1=O (stereo not given) | 2
85 | COc1c(C(C)C)cc(N)cc1C(C)C | 3
86 | CCCc1cn(C2CCN(C(=O)CC3CCCCCC3)CC2)nn1 | 2
87 | COc1ccc(-c2ccc(SCC(=O)N3c4cc(C)ccc4C(C)=CC3(C)C)nn2)cc1 | -30
88 | CCOc1ccc(-c2noc(-c3c(O)c4ccccc4n(C)c3=O)n2)cc1 | -60
89 | COc1ccc(S(=O)(=O)Nc2ccc3c(c2)C(=O)N([C@@H](C)CO)C[C@H](C)[C@H](CN(C)Cc2ccc(C(F)(F)F)cc2)OCCCC[C@@H](C)O3)cc1 | -47
90 | Cc1ccc(NC(=O)CN2C(=O)CCc3cc(S(=O)(=O)N4CCCC4)ccc32)cc1Cl | -25
91 | CC(C)CNC(=O)[C@H]1C[C@@H]2CN(C(=O)NC3CCCC3)C[C@H]1O2 | 0
92 | CCOC(=O)c1nnn2c1nc(Sc1nnc(-c3ccncc3)n1C)c1ccccc12 | 61
93 | CC1CCc2cc(F)ccc2N1C(=O)CSc1ncc(-c2ccccc2)n1C1CCCC1 (stereo not given) | -80*
94 | CCc1ncc(CN2CCC(Cc3cc(NCc4ccccc4F)nc(C)n3)CC2)cn1 | -43
95 | Cc1noc(C)c1NC(=O)N(C)C[C@H]1Oc2ccc(NC(=O)CCCN(C)C)cc2C(=O)N([C@@H](C)CO)C[C@H]1C | -14
96 | Cc1cccc(NC(=O)CSc2sc3c(O)cc(=O)[nH]c3c2C#N)c1 | 262
97 | CCN1CCCC1CNC(=O)c1cc(C)c(C)c(S(N)(=O)=O)c1 (stereo not given) | -27
98 | Cc1cnc(N2C[C@H](N(C)Cc3ccco3)C3OCCCC32)nc1 (stereo not given in full) | 1
99 | COc1cccc(CC2CN(C(=O)Cc3c(C)nc(N)nc3C)CCO2)c1 (stereo not given) | -3
100 | CC(NC(=O)CCc1ccc2c(c1)n(C)c(=O)n2C)c1nc2ccccc2n1C(C)C (stereo not given) | 36
101 | CCCn1nc(NC(=O)CCC(=O)O)c2cc3cccc(C)c3nc21 | -48
102 | Clc1cccc(CSc2nc(NCc3ccccc3)c3ccccc3n2)c1 | -44
103 | O=C(CC1NC(=O)c2ccccc21)NCCc1nc2c(s1)CCC2 (stereo not given) | -39
104 | COc1ccc(Cl)cc1C(=O)Nc1ccc(-c2nc(Cn3cc(C)cn3)c(C)o2)cc1 | 29
105 | CC(=O)N1CCCC(c2ccccc2CC2(C(N)=O)CCN(Cc3ccccc3)CC2)C1 (stereo not given) | -51
106 | COc1ccc(NC(=O)N[C@@H]2CC[C@@H](CCNC(=O)CN3CCOCC3)O[C@H]2CO)cc1 | -4
107 | CCCc1nc(C(=O)N2CC(c3ccncc3)C2)cs1 | -43
108 | CCNC(=O)[C@@H]1[C@@H](CO)[C@@H]2Cn3c(cccc3=O)[C@H]1N2C(=O)Nc1cc(F)ccc1F | -5
109 | Cn1nc(CN2CCC3(CC2)CNC(=O)C3)c2c(Cl)cccc21 | -44
110 | Cc1ccc(CN2CCC3(CC2)C(=O)N(Cc2csc(C)n2)CCN3C)o1 | 10
111 | O=C(COC(=O)c1ccc2c3c1C1C=CCC1CN3CC1CC=CC21)c1ccc(Cl)cc1 (stereo not given) | 5
112 | Cc1c(NCc2cccnc2)cccc1C(=O)N1CCN(C)C(=O)C1C (stereo not given) | 5
113 | COc1ccc(NC(=O)N2CCc3nc(-c4ccccc4)sc3C2)c(OC)c1 | 26

Values by screen from above:
Tg IFNy HTS, compounds 94 to 102: -43, -14, 262, -27, 1, -3, 36, -48, -44

An excerpt; the hit share may differ from the screen's.
